BasE inh: blocks the Acinetobacter baumannii siderophore enzyme BasE; inhibition, % (test concentration not listed); 0.1% of 84,000 active; purified BasE, fluorescence polarization binding displacement;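 active means both replicates above 25% with normal brightness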;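 further: 0% = negative plate control signal and 100% = positive plate control signal; stock transfer was 100 nL into about 30 µL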
KSHV LANA nucl: inhibitors of KSHV LANA binding to nucleosomes; FITC-LANA1-23 / chicken nucleosome fluorescence polarization; stronger effect = lower value; z-score (test concentration not listed); 0.3% of 51,000 active; AID 720717;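 active means both repeat wells score below -2 in polarization z-score versus plate sample wells, excluding overly bright wells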;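 further: 100 nL library stock added to about 30 µL; numbers are from one replicate; some results filed as inactive read as strong as hits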
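Material: Purified chicken nucleosomes with FITC-labelled LANA N-terminal peptide (1-23) | Reagent: 50 nM FITC-LANA1-23 probe | Medium: TEN-BT buffer, pH 7.5 | Times: 10–45 min incubation at room temperature | Detection: Fluorescence polarization | Replication: Duplicates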
* marks the source's active call; other numbers are inactive results; · = not tested or not shown; & = joins results of further samples.

Under each structure – KSHV LANA nucl, BasE inh
CCN(CC)S(=O)(=O)c1ccc(N2CC(C(=O)N3CCCc4ccccc43)CC2=O)cc1 (stereo not given)
→ ·, 0.9
CCOC(=O)/C=C1\SCC(=O)N1CCOc1ccccc1C#N
→ ·, -13
O=C(CSc1ccccc1C(=O)Nc1ccc(-n2cnnn2)cc1)NCc1ccco1
→ ·, -0.6
COc1ccc(C)cc1NC(=O)CCN1CCN(c2ccccc2)CC1
→ -0.47, 2.7
CCOc1ccc(NC(=O)N(CC(C)C)CC(C)C)cc1
→ -0.77, 0.6
COCCNC(=O)C1CCCN(c2cnnc3c(Cl)cccc23)C1 (stereo not given)
→ -0.43, 1.1
N#Cc1ccc(OC(=O)N2CCOCC2)cc1
→ -0.54, -0.2
CC1CCCCN1C(=O)c1noc2c1CC(C(C)(C)C)CC2 (stereo not given)
→ -0.36, 1.5
Cc1nnc(NC(=O)CSc2nnc(CNC(=O)c3ccco3)n2-c2ccc(F)cc2)s1
→ 0.38, 1.6
CCOC(=O)CSc1sc(C(=O)OCC)c(N)c1C(=O)N1CCOCC1
→ 1.1, -1.0
COc1ccc(CNc2cc(C)nc3ccc(OC)cc23)cc1
→ ·, -12
COc1ccc(/C=C/C(=O)O)cc1S(=O)(=O)N(C)C
→ ·, -2.5
Cc1cc(C(=O)CC#N)c(C)n1CC(F)(F)F
→ ·, -0.9
COc1ccccc1NC(=O)C(C)Nc1ccc(C)cc1C (stereo not given)
→ ·, -1.0
Fc1cccc(Cl)c1CSC1=NCCN1
→ ·, -0.9
CCOc1ccc(/C=N/NC(=O)Cc2cc(=O)[nH][nH]2)cc1
→ -1, 19
O=C(NC(=S)N1CCCC1)C1CC1
→ ·, 1.0
CC(N=CC1=C(O)CNC1=O)c1ccccc1 (stereo not given)
→ -0.061, 0.8
CCOC(=O)c1cc2c(nc1C)-c1cc(Cl)cc(Cl)c1OC2O (stereo not given)
→ ·, 3.4
CC1(C(=O)O)Cc2ccccc2C(=O)O1 (stereo not given)
→ -0.052, -1.7
COC(=O)c1cc(S(=O)(=O)NC2CCCCNC2=O)oc1C (stereo not given)
→ 0.61, -3.5
CN(CC(=O)Nc1ccc(Cl)cc1)C(=O)Cn1nnc2ccccc2c1=O
→ ·, -5.0
COc1ccccc1CNC(=O)C1CCN(C(=O)c2ccco2)CC1
→ 0.09, -0.8
Cc1c(C(=O)N2CCOCC2)oc2c1-c1nn(CC(=O)NC3CCCCC3C)cc1CC2 (stereo not given)
→ 0.89, 5.0
COc1ccccc1C1OC(CSc2nc3ccccc3o2)=NN1C(C)=O (stereo not given)
→ -1.5, 2.9
CCC(Sc1nnc(-c2cc3occc3n2C)n1-c1ccccc1C)C(=O)NC1CCCC1 (stereo not given)
→ -0.033, 1.6
Cc1cc(OCC(=O)N(Cc2ccc(C(C)C)cc2)C2CCS(=O)(=O)C2)cc(C)c1Cl (stereo not given)
→ ·, 2.3
CCOC(=O)N1CCC(=NNC(=S)Nc2c(C)cccc2C)CC1
→ ·, -0.7
COc1ccc(-c2nc(COc3ccccc3Cl)nc(SC)c2C#N)cc1
→ ·, 3.9
CC(C)NC(=S)N/N=C/c1ccccc1C(=O)O
→ ·, -0.2
Cc1cccc(-n2c(CCN3C(=O)c4ccccc4C3=O)nc3ccccc3c2=O)n1
→ 0.22, -1.8
COC(=O)C1=CN(Cc2cccs2)C=C(C(=O)OC)C1c1cccc(OC)c1
→ ·, -0.4
CC(C)CCC1CC(C)(C(C)O)OC1=O (stereo not given)
→ -0.93, 1.1
Cn1cccc1C(=O)OCC(=O)c1c[nH]c2ccccc12
→ ·, -11
CCc1ccc(Oc2coc3cc(O)ccc3c2=O)cc1
→ 0.58, 1.2
CN(c1ccccc1)S(=O)(=O)c1ccc2c(c1)CCN2S(C)(=O)=O
→ -0.56, 3.7
O=C(CSCc1cnn(-c2ccccc2)c1-n1cccc1)NCc1ccccn1
→ 2.1, -4.4
COc1ccc(-c2oc3ncn4nc(-c5ccccc5)nc4c3c2-c2ccc(OC)cc2)cc1
→ 0.019, 0.4
CN(CC(=O)N1CCc2ccccc21)S(=O)(=O)c1ccc(-c2ccc(=O)[nH]n2)s1
→ ·, 0.1
Cc1ccc(CNC(=O)CN2CCOc3ccccc32)cc1
→ 2.6, -1.4
CN(C)c1ccc(-c2nc3ccccc3o2)cc1
→ -0.53, 0.5
Cc1ccc(-n2c(-c3ccccc3)csc2=NC(=O)c2ccccc2)cc1
→ ·, 0.6
Cc1ccc(S(=O)(=O)N2CCCC(c3nc4c(nnn4Cc4ccc5c(c4)OCCO5)c(=O)[nH]3)C2)cc1 (stereo not given)
→ -1.3, 1.5
CCCC(C)C(=O)Nc1ccc(F)cc1 (stereo not given)
→ -0.54, 0.9
O=c1ccc2cc3c(-c4ccc(F)cc4)coc3cc2o1
→ ·, 0.9
O=C(CSc1nnc(COc2ccccc2)o1)NCCc1ccccc1
→ -0.015, -1.4
Cc1ccc(-c2nnn(CC(=O)N3CCCC3c3ccc4c(c3)OCCCO4)n2)cc1 (stereo not given)
→ ·, -1.2
O=C1C(=Nc2cccnc2)c2ccccc2N1CN1CCOCC1
→ ·, 0.8
Cc1ccccc1NC(=O)N1CC(C)CC(C)C1 (stereo not given)
→ -0.34, 4.0
COc1cccc(-c2nc(CN3CCN(c4ccccc4OC)CC3)cs2)c1
→ ·, -4.9
C[C@]12C=CC(=O)C=C1CCC1C2[C@@H](O)C[C@@]2(C)C1CC[C@]2(O)C(=O)CO (stereo not given in full)
→ 1.2&-0.46, -1.1
CN(C)c1ccc(/C=C(\C#N)C(=O)OCc2ncc(-c3ccccc3)o2)cc1
→ ·, 27
Oc1c(Br)cc(Br)c2cccnc12
→ -0.29, -1.6
CC(O)/C=C/c1cccc[n+]1C (stereo not given)
→ ·, 2.2
O=C(Nc1ccccc1N1CCOCC1)C1(c2ccccc2)CC1
→ ·, 1.7
CC(C)(C)c1ccc(NC(=O)C2CCCC2)cc1
→ ·, -0.7
Cc1cc(NS(=O)(=O)c2ccc(N)cc2)no1
→ 0.046&-0.097&0.58, 0.5&-2.2
COc1ccc(C(=O)Nc2ccc(Oc3ncnc4cc(Cl)ccc34)nc2)cc1
→ ·, 0.5
O=S(=O)(NCC1CCCO1)c1ccc(-c2cc(C(F)(F)F)no2)s1 (stereo not given)
→ ·, 0.1
O=C(CCN1C(=O)c2ccccc2S1(=O)=O)Nc1ccccc1
→ -0.45, -3.0

Quoted at random: 2 entries already listed, in no set order.
Under each structure – KSHV LANA nucl, BasE inh
Cc1ccccc1NC(=O)N1CC(C)CC(C)C1 (stereo not given)
→ -0.34, 4.0
Cc1cc(NS(=O)(=O)c2ccc(N)cc2)no1
→ 0.046&-0.097&0.58, 0.5&-2.2

Later entries:
Under each structure – KSHV LANA nucl, BasE inh
O=C(CCc1nnc2ccc(N3CCCC3)nn12)Nc1cccnc1
→ 0.91, 2.3
CN1CCN(C2=Nc3c(Cl)cc(Cl)c4cccc2c34)CC1
→ ·, 1.5
C=CCNC(=O)c1c(O)nc2ccccn2c1=O
→ -0.067, 0.8
CN1CCNC(c2ccccc2)C1 (stereo not given)
→ ·, 1.6
O=C(O)c1ccccc1Sc1ccccc1S(=O)(=O)NC1CCCCC1
→ ·, 0.5
CCC(=O)C12CC3CC(CC(C3)C1)C2
→ 0.42, -2.2
O=C1N/C(=C\c2ccc(O)cc2)C(=O)c2ccccc21
→ 0.44, 0.1
O=C(Nc1ccc(S(=O)(=O)Nc2cccc(C(F)(F)F)c2)cc1)c1ccco1
→ -0.56, -2.3
COC(=O)C(C#N)c1nc2ccccc2nc1N1CCN(c2ccc(F)cc2)CC1 (stereo not given)
→ ·, 19
CN(Cc1ccco1)C(=O)CNC(=O)c1ccc(Oc2ccccc2)cc1
→ ·, -1.7
CCN(CC)S(=O)(=O)c1ccc(=O)n(CC(=O)c2ccc[nH]2)c1
→ ·, -0.8
CC(Oc1ccccc1)C(=O)NC1CCSc2ccccc21 (stereo not given)
→ ·, -0.3
N#CC(C(=O)CCN1C(=O)C2CC=CCC2C1=O)c1nc2ccccc2[nH]1 (stereo not given)
→ ·, 0.7
O=C(C1CC1)N1CCc2cc(Br)cc(S(=O)(=O)NC3CCCC3)c21
→ -0.28, -1.5
O=C(NCc1ccccc1)c1cc(C(=O)C2CCCCC2)c[nH]1
→ 2.4, ·
CC1=CC(=C2C(=O)c3ccccc3C2=O)C=C(C)O1
→ -0.74, 3.3
CC(=NCCCN1CCOCC1)c1c(C)[nH]n(-c2ccc(F)cc2)c1=O
→ -0.89, -1.4
O=c1oc(-c2cccs2)nn1CN1CCCC2CCCCC21 (stereo not given)
→ ·, 0.3
CC1CCc2c(sc(N)c2C(N)=O)C1 (stereo not given)
→ 0.41, -0.5
Cc1ccc(S(=O)(=O)N(C/C=C/c2ccccc2)C(=O)N2CCN(C)CC2)cc1
→ 1.6, -2.8
O=C(Nc1ccc(F)cc1)Oc1ccccc1N1CCOCC1
→ -0.23, 2.9
CC1CC(C)(C)NC(=S)N1CCC(=O)Nc1ccc(F)c(F)c1 (stereo not given)
→ -0.076, 1.9
CC(C)[C@H](NC(=O)COc1ccc(C#N)cc1)c1nc2ccccc2[nH]1
→ ·, -2.6
O=C(Nc1ccc(S(=O)(=O)C(F)F)cc1)c1cccnc1N1CCCC1
→ ·, 2.6
CC1CCCN(C(=O)C2CC(=O)N(C3CCCCC3)C2)C1 (stereo not given)
→ 0.68, 0.4
Cn1c(=O)n(C)c2ccccc21
→ 1.2, -0.3
CN1c2ccsc2-c2nc(SCc3ccc(Cl)cc3)ncc2S1(=O)=O
→ ·, 2.2
c1ccc2c(CNCCN3CCOCC3)cccc2c1
→ -0.36, 0.9
Cc1nn(-c2ccccc2)c(C)c1C(N)=O
→ -0.51, 1.1
O=S(=O)(NCCSCc1c(F)cccc1Cl)c1cccc2nonc12
→ 0.71, -2.4

Full records from above. Screens in order: KSHV LANA nucl | BasE inh
CCN(CC)S(=O)(=O)c1ccc(=O)n(CC(=O)c2ccc[nH]2)c1 is listed as · | -0.8
CC(Oc1ccccc1)C(=O)NC1CCSc2ccccc21 (stereo not given) is listed as · | -0.3
O=C(C1CC1)N1CCc2cc(Br)cc(S(=O)(=O)NC3CCCC3)c21 is listed as -0.28 | -1.5
C=CCNC(=O)c1c(O)nc2ccccn2c1=O is listed as -0.067 | 0.8

(listing goes on)
Under each structure – KSHV LANA nucl, BasE inh
CNC(=C[N+](=O)[O-])NCCSCc1csc(CN(C)C)n1
→ -0.4, 1.1
CCCCn1c(NCc2ccccc2OC)nc2ccccc21
→ 0.83, -1.4
CN(C(=O)CO/N=C/c1ccc(OC(F)F)cc1)C1CCS(=O)(=O)C1 (stereo not given)
→ ·, -3.2
O=C1COc2ccc(NC(=O)Oc3ccccc3)cc2N1
→ -0.062, ·
CC1CCCCN1CCn1cnc2c([nH]c3ccc(Cl)cc32)c1=O (stereo not given)
→ -0.085, -6.1
COc1cc(SC)ccc1C(=O)N1CCCCCC1
→ 0.84, -2.1
N#Cc1c(N2CCCC2=O)sc2c1CCCCC2
→ ·, -1.7
CCn1c(SCC(=O)N(C)C)nnc1-c1ccccc1
→ 0.38, -2.1
COc1ccc(CN(C)C(=O)c2cc(C)n(C(C)C)c2C)c(OC)c1
→ ·, 2.2
O=C1CCCN2N=C(SCC(=O)Nc3ccccc3C(F)(F)F)SC2=N1
→ -0.19, -1.1
COc1ccc2c(c1)-c1c(ssc1=S)C(C)(C)N2C(C)=O
→ ·, -1.8
COC(=O)C1[C@H]2C[C@H]3c4[nH]c5ccccc5c4CCN3C[C@@H]2CC[C@@H]1O (stereo not given in full)
→ 0.49&1.1, -0.1
CCOC(=O)c1cnc2c(Cl)c(Cl)ccc2c1N(C)Cc1ccccc1
→ ·, 1.8
CCCCCCC1CC(=O)NC(=O)N1 (stereo not given)
→ -0.13, -0.3
CC1CC(Nc2ccccc2)c2ccccc2N1 (stereo not given)
→ -0.049, -1.5
Cc1cccc(C)c1Nc1nc2ccccc2o1
→ -0.55, 5.2
Cc1cc(N2CCOCC2)nc(N2CCOCC2)n1
→ ·, 0.0
CSc1ccccc1NC(=O)CN(C)S(=O)(=O)c1ccccc1Cl
→ ·, -1.2
CCCc1c(C(=O)NC2CCN(C(=O)OCC)CC2)cnn1-c1ccccc1
→ ·, 0.1
CC(=O)NS(=O)(=O)c1ccc(N=NN2CCCCC2)cc1
→ 1.8, -0.3
O=C(O)CCC(=O)N1CCc2cc(S(=O)(=O)NCCc3ccc(Cl)cc3)ccc21
→ -1.5, 1.0
Cc1nc(-c2ccc(Cl)cc2)c(-c2ccccc2)s1
→ ·, -1.1
COC(=O)c1cccc(NC(=O)NC(C)(C)C)c1
→ 0.038, -0.9
COc1cccc(CNC(=O)c2cc3ccccn3n2)c1
→ 0.43, 3.1
CCCCc1nnc(SCC(=O)Nc2nccs2)n1CC
→ 0.36, 0.8
CCOC(=O)C1=C(c2ccccc2)NC(SCC(N)=O)=C(C#N)C1c1ccco1 (stereo not given)
→ 0.11, 1.2
O=C(NC1CC1)C1CCN(c2cnccn2)CC1
→ 0.056, 2.2
O=C(CSc1nn(-c2ccc(F)cc2)c(=S)s1)NC1CC1
→ ·, 2.1
CNC(=O)C1CCCN1S(=O)(=O)c1ccc(OC)cc1 (stereo not given)
→ -1.3, 2.0

Nothing new here: entries from further up.
Under each structure – KSHV LANA nucl, BasE inh
CCOC(=O)/C=C1\SCC(=O)N1CCOc1ccccc1C#N
→ ·, -13
O=C(CSc1ccccc1C(=O)Nc1ccc(-n2cnnn2)cc1)NCc1ccco1
→ ·, -0.6
COc1ccc(C)cc1NC(=O)CCN1CCN(c2ccccc2)CC1
→ -0.47, 2.7

Screening results: PubChem BioAssay, ICCB-Longwood Screening Facility, Harvard Medical School

A portion of the library, so the mix of outcomes need not match the whole.
